Polio RdRp inh: poliovirus RNA polymerase inhibition; P03300; poliovirus polymerase elongation, fluorescence polarization; active compounds read low; % elongation, % (compound at 16.7 µg/mL); 150,000 tested, 0.66% active; AID 588519; in the data active means % elongation below about 90%; further: some results filed as inactive read as strong as hits
Target sequence (P03300 1749-2209 limits assumed): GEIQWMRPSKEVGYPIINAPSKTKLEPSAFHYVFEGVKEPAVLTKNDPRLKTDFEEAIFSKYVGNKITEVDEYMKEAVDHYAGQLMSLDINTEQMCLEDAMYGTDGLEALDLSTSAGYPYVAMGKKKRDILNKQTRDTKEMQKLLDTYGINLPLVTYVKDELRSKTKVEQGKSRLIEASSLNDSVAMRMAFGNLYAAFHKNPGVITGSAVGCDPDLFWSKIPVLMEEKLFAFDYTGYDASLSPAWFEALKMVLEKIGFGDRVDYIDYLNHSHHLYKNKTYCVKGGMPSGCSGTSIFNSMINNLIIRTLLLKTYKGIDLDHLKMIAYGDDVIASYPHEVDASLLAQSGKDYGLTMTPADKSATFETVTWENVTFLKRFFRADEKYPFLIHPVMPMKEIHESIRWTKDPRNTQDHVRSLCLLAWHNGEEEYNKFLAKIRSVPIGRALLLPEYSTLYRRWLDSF
Polio RdRp inh intensity: also measured in Polio RdRp inh; calls as there; % elongation; measured here: total intensity read-out; formula for this scale not given here;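 total fluorescence in place of polarization; lower means less elongation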
The depositor's hits bear a star.

SMILES	Polio RdRp inh	Polio RdRp inh intensity
Cc1ccc(CNC(=O)c2cc(C)nc3c2c(C)nn3-c2ccc(C)cc2)cc1	113	114
Cc1cc(C)cc(NC(=O)c2sc3nc[nH]c(=O)c3c2C)c1	108	107
CCC1CCCCN1C(=O)CSc1nc2c([nH]c3ccccc32)c(=O)n1-c1ccc(OC)cc1 (stereo not given)	107	113
Cc1cc(C)cc(NC(=O)CCCc2nc(-c3ccccc3Cl)no2)c1	105	103
COc1cccc2sc(NC(=O)CS(=O)(=O)c3ccc(C)cc3)nc12	102	107
CCC12CN3CC(C)(CN(C1)C3c1c(C)n(C)c3ccccc13)C2=O (stereo not given)	113	114
CCOC(=O)CSc1nc2cc3c(cc2c(=O)n1Cc1ccc(C(=O)NCCc2ccc(OC)c(OC)c2)cc1)OCO3	104	97
CCOc1ccc(C(=O)Nc2ccc3nn(-c4ccc(OC)c(Cl)c4)nc3c2)cc1	107	99
Cc1ccc(C(C)C)c(OCC(=O)NCC2(N(C)C)CCCCC2)c1	109	106
COCC(C)Nc1ncnc2c1cnn2-c1ccc(C)c(C)c1 (stereo not given)	104	104
Cn1nc(C(=O)Nc2cc(F)ccc2F)c2c1-c1ccccc1SC2	105	109
Cc1ccc(NC(=O)Cn2c(=O)n(Cc3ccc(F)cc3)c(=O)c3cccnc32)cc1C	105	113
O=C(CSc1nc2c(oc3ccccc32)c(=O)n1Cc1ccco1)Nc1cccc(Cl)c1	102	106
CCC(=O)N1c2nc(C(C)C)nn2C2(CCCCC2)[C@@H]2CCCC[C@@H]21	103	103
Cc1ccccc1N(C)S(=O)(=O)c1nnc(NC(=O)c2ccccc2F)s1	103	106
CCC(CC)C(=O)N1CCc2cc(OC)c(OC)cc2C1COc1ccccc1OC (stereo not given)	105	106
COc1cc(NC(=O)Cn2cc(S(=O)(=O)c3ccccc3)c(=O)c3ccccc32)cc(OC)c1	108	111
CCOc1ccc(-n2c(C)nc3cc(C(=O)NCc4ccc(C)cc4)ccc32)cc1	109	106
COc1ccc(C(=O)NC(c2ccccc2Cl)c2cc(Cl)c3cccnc3c2O)cc1 (stereo not given)	46	248
Cc1c(C(=O)NCc2ccccc2Cl)sc2nc3n(c(=O)c12)CCCC3	111	110

For reference, some entries already given:
SMILES	Polio RdRp inh	Polio RdRp inh intensity
Cc1ccc(CNC(=O)c2cc(C)nc3c2c(C)nn3-c2ccc(C)cc2)cc1	113	114
Cc1cc(C)cc(NC(=O)c2sc3nc[nH]c(=O)c3c2C)c1	108	107
CCC1CCCCN1C(=O)CSc1nc2c([nH]c3ccccc32)c(=O)n1-c1ccc(OC)cc1 (stereo not given)	107	113
Cc1cc(C)cc(NC(=O)CCCc2nc(-c3ccccc3Cl)no2)c1	105	103

Following part
SMILES	Polio RdRp inh	Polio RdRp inh intensity
COc1ccc(OC)c(NC(=O)c2cc3cc(C)ccc3n2C)c1	112	108
O=C(c1cccc(F)c1)N1CCC(c2c[nH]c3ccccc23)(c2c[nH]c3ccccc23)CC1	112	113
CCCCNC(=O)CSC1=Nc2ccccc2C2=NC(CCC(=O)NCc3ccccc3OC)C(=O)N12 (stereo not given)	109	110
CCc1nn(CC(=O)NCCCN2CCN(C)CC2)c(=O)c2cc3occc3n12	105	107
COc1ccc(-c2ccc(NS(=O)(=O)c3ccccc3Cl)cc2)nn1	106	105
COc1cc(C2c3c(-c4c(C)cc(C)cc4O)n[nH]c3C(=O)N2CCO)cc(OC)c1OC (stereo not given)	102	102
CC(=O)N1c2ccc(S(=O)(=O)Nc3ccc(Cl)cc3C)cc2CC1C (stereo not given)	100	102
Cc1cc(C)c(NC(=O)Cn2nnc3sc4c(c3c2=O)CCC(C(C)(C)C)C4)c(C)c1 (stereo not given)	105	105
COc1ccc(NC(=O)CSc2nnc3scc(-c4ccc(Cl)cc4)n23)cc1	110	107
CC(=O)Nc1ccc(NC(=O)c2cc3sccc3n2Cc2ccc(F)cc2)cc1	110	110

Reformatted with two lines to a compound: part of the list above.
Values run as follows: Polio RdRp inh, Polio RdRp inh intensity
CC(=O)N1c2ccc(S(=O)(=O)Nc3ccc(Cl)cc3C)cc2CC1C (stereo not given)
 : 100, 102
COc1ccc(OC)c(NC(=O)c2cc3cc(C)ccc3n2C)c1
 : 112, 108
O=C(c1cccc(F)c1)N1CCC(c2c[nH]c3ccccc23)(c2c[nH]c3ccccc23)CC1
 : 112, 113
CCCCNC(=O)CSC1=Nc2ccccc2C2=NC(CCC(=O)NCc3ccccc3OC)C(=O)N12 (stereo not given)
 : 109, 110
COc1ccc(-c2ccc(NS(=O)(=O)c3ccccc3Cl)cc2)nn1
 : 106, 105
Cc1cc(C)c(NC(=O)Cn2nnc3sc4c(c3c2=O)CCC(C(C)(C)C)C4)c(C)c1 (stereo not given)
 : 105, 105

Next section
SMILES	Polio RdRp inh	Polio RdRp inh intensity
Cc1cccc(NC(=O)Cn2c(=O)n(-c3ccccc3Cl)c(=O)c3c(C)c(C(=O)N(C)C)sc32)c1	106	111
COc1ccc(CCC(=O)NCc2ccc3c(c2)CCN3C(=O)c2ccc(Cl)cc2)cc1	108	112
COc1cccc(CNC(=O)c2cc(S(=O)(=O)N3CCCCC3)c[nH]2)c1	103	101
CCN1CCN(C(=O)c2ccc3c(c2)N(Cc2ccccc2F)C(=O)c2ccccc2S3(=O)=O)CC1	103	108
CCOc1ccc2nc(Cl)c(C3CC(c4ccccc4)=NN3C(=O)CCC(=O)O)cc2c1 (stereo not given)	106	106
C=Cc1ccc(Cn2c(SCC(=O)N3CCN(c4ccc(F)cc4)CC3)nc3ccccc32)cc1	109	115
CCOC(=O)c1c(C)[nH]c(C)c1S(=O)(=O)N1CCCC(C(=O)Nc2ccc(F)cc2F)C1 (stereo not given)	109	115
O=C(Nc1ncc(Cc2ccccc2Cl)s1)c1ccc2c(c1)CC(c1ccccc1)OC2=O (stereo not given)	111	115
CCN(C(=O)c1coc(=O)c2ccccc12)c1ccccc1C	103	110
CCOc1ccc(NC(=O)c2c(NC(=O)c3ccncc3)sc3c2CCC(C(C)(C)C)C3)cc1 (stereo not given)	83*	79*
O=C(Cn1c2ncccc2c(=O)n1-c1ccccc1)NCc1ccccc1	104	105
COc1ccc(CCNC(=O)c2ccc3c(c2)nc2n3CCOC2)cc1OC	118	120
Clc1ccc(NCc2nc3ccccc3n2CCOc2ccccc2)cc1	98	105
O=C(Cn1c(=O)oc2cc(S(=O)(=O)N3CCCC3)ccc21)Nc1ccc(OC(F)(F)F)cc1	110	110
CCOc1ccc(OCC)c(Nc2cc(C)nc3nc(-c4ccco4)nn23)c1	103	108
COCCCn1c(=N)c(C(=O)NC2CCCC2)cc2c(=O)n3cc(C)ccc3nc21	110	111
O=C(Nc1ccccc1Cl)[C@H](CSCc1ccccc1)N1Cc2ccccc2C1=O	110	111
CC(=O)c1ccc(N2CCN(C(=O)NCc3noc4ccc(C)cc34)CC2)cc1	107	113
O=C(NCc1ccc(Cl)cc1)C1CCN(C(=O)c2cnn(-c3ccccc3)c2-n2cccc2)CC1	105	105
COc1ccc(N2CCN(C(=O)c3ccc(NC(=O)c4nsc5ccccc45)cc3)CC2)cc1	105	107
CCCS(=O)(=O)N1CC(=O)N(c2ccc(Cl)cc2)C(C)(C(=O)NC2CCCC2)C1 (stereo not given)	109	107
Cc1cccc(NC(=O)C(=O)NCCc2csc(-c3ccc(C(F)(F)F)cc3)n2)c1C	103	108
CCn1cc(C(=O)N2CCN(c3cc(Cl)ccc3C)CC2)c(=O)c2cc(S(=O)(=O)N3CCOCC3)ccc21	100	102
Cc1ccc(CCNC(=O)c2cc3sccc3n2Cc2ccc(F)cc2)cc1	104	110
CCc1ccc(CNC(=O)CCCN2C(=O)CCn3nc(-c4cccn4C)cc32)cc1	107	105
Cc1cccc(N2CCn3c2nc2c3c(=O)n(CCCc3ccccc3)c(=O)n2C)c1	104	105
C=C(C)Cn1c(=O)c2c(nc3n2CCN3c2ccc(CC)cc2)n(C)c1=O	116	114
CCOc1cccc(C2c3[nH]c4ccccc4c3CCN2C(=O)CCC2CCCC2)c1 (stereo not given)	106	111
CCCCn1cc(S(=O)(=O)c2ccc(CC)cc2)c(=O)c2cc(F)c(N3CCCC(C)C3)cc21 (stereo not given)	104	98
Cc1ccc2nc3c(cc(C#N)c(=O)n3-c3nnc(SCc4ccccc4Cl)s3)c(=O)n2c1	105	111
CC(C(=O)NCCSCc1cccc(Cl)c1)N(c1ccccc1)S(C)(=O)=O (stereo not given)	100	101
CCCSc1nc2sc3c(c2c(=O)n1-c1ccc(C)cc1)CCCC3	107	110
COc1ccc(CCN2C(=O)N(c3ccc(F)cc3)C(=O)C2CC(=O)Nc2ccccc2)cc1 (stereo not given)	105	109
CCOc1ccc(NC(=O)c2cnn3c(C(F)F)cc(-c4ccc(C)cc4)nc23)cc1	103	105
COc1ccccc1NC(=O)c1oc2ccccc2c1NC(=O)Cc1cccs1	108	111
CCOc1cc(C(=O)Nc2ccc3nc(Nc4cccc(Cl)c4)cc(C)c3c2)cc(OCC)c1OCC	106	101
O=c1c(NCCc2ccc(Cl)cc2)nccn1-c1ccccc1	105	109
Cc1cccc(N2CCN(C(=O)CCc3nnc4n(CC(C)C)c(=O)c5ccccc5n34)CC2)c1C	100	102
COc1ccc(C)c2sc(NC(=O)c3ccc(S(=O)(=O)N4CCCCC4)cc3)nc12	105	107
CC(=O)c1ccc(NC(=O)CCCc2nc(-c3cccc(C)c3)no2)cc1	110	107
Cc1ccc2c(c1)-c1c(cnc3cc(-c4ccc(F)cc4)nn13)CO2	105	105
COc1ccc2c(CNC3CCCC3)c(C(=O)O)n(Cc3ccccc3C)c2c1	111	108
COc1ccc(NC(=O)c2ccc3oc(=O)c(S(=O)(=O)c4ccc(C)cc4)cc3c2)cc1OC	105	109
CC(=O)Nc1cccc(NC(=O)CSc2nccn2C2CCCC2)c1	110	111
CCCCOc1ccc(C2C(=O)N(C3CCCCC3)CC(=O)N2C2CCCCC2)cc1 (stereo not given)	109	109
CCCCN(C)CCCNC(=O)CN1N=C(c2ccc(OC)cc2)CCC1=O	103	109
CCOc1ccc(CNC(=O)c2ccc3c(c2)N(CC)CCS3)cc1	111	108
CCCC(=O)Nc1ccc2nn(-c3ccc(CC)cc3)nc2c1	107	109
COc1ccc(CNc2ncnc3onc(-c4ccc(F)cc4)c23)cc1	106	112
COc1ccc(CCNC(=O)c2ccc3c(c2)N(Cc2ccc(C)cc2)CCS3)cc1OC	102	110

(next part)
SMILES	Polio RdRp inh	Polio RdRp inh intensity
CCOC(=O)c1cc2c(=O)n3ccccc3nc2n(CCOC)c1=NC(=O)c1c(-c2ccccc2Cl)noc1C	105	101
CC(C)CC(=O)Nc1nnc(S(=O)(=O)N(CC(C)C)c2ccccc2)s1	103	84
CCc1ccc(S(=O)(=O)c2nnn3c2nc(NC(C)C)c2sccc23)cc1	109	113
O=C(CNC(=O)c1ccccc1F)OCc1cc(=O)n2nc(C3CCCCC3)sc2n1	105	107
COc1ccccc1C(=O)Nc1nc2ccc(S(=O)(=O)N3CCCC3)cc2s1	112	115
COc1ccc(-n2ncc3c2ncn2nc(-c4ccc(Cl)cc4Cl)nc32)cc1	117	114
CCCCC1CCC(C(=O)N2CC(=O)Nc3ccc(Cl)cc3C2c2ccc(F)cc2)CC1 (stereo not given)	105	106
CC(=O)c1ccc(NS(=O)(=O)c2ccc3[nH]c4c(c3c2)CCCCCC4)cc1	112	112
CCc1ccc(C2Sc3ccccc3NC3=C2C(=O)c2ccccc23)cc1 (stereo not given)	111	108
CCOCCCNC(=O)C(c1ccccc1)N(Cc1cccs1)C(=O)c1ccc(NC(C)=O)cc1 (stereo not given)	102	102
Cc1nn2c(=O)cc(COC(=O)c3ccccc3NC(=O)COc3ccccc3C)nc2s1	108	109
COc1ccc(NC(=O)CCS(=O)(=O)c2nc(-c3ccc4c(c3)OCO4)cc(C(F)(F)F)n2)cc1	104	110
COC(=O)c1scc(-c2ccc(C)cc2)c1S(=O)(=O)Nc1cc(Cl)ccc1C	102	101
CCOc1ccccc1CNc1nc2nc(C)cc(C)n2n1	96	66
O=C(Nc1ccc(Br)cc1)C1CCCN(S(=O)(=O)c2ccc(Br)s2)C1 (stereo not given)	108	104
O=C(O)Cn1nnc(-c2ccc(OCc3cccc(C(F)(F)F)c3)cc2)n1	104	102
Cc1ccc(Oc2nc3c(c(=O)n(Cc4ccccc4)c(=O)n3C)n2C)cc1C	108	112
O=C(Nc1cc(F)ccc1F)c1cnn2c(C(F)F)cc(-c3ccccc3)nc12	109	106
CCOc1ccc(NC(=O)C2=C(C)C(=O)OC23CCC(C)CC3)cc1 (stereo not given)	108	113
Cc1ccc(Nc2cc(C)nc3nncn23)c(C)c1	103	95
Cc1ccc(/C=C/c2onc(C)c2S(=O)(=O)N2CCC(C(=O)Nc3cc(F)ccc3F)CC2)cc1	100	108
O=C(Cc1ccccc1)Nc1sc2c(c1C(=O)Nc1ccccc1Cl)CCCCC2	98	103
CC1CCN(C(=O)c2cccc(NC(=O)c3nsc4ccccc34)c2)CC1	113	114
CCN1CCN(C(c2ccc(Cl)cc2)c2c(O)cc(C)n(CCOC)c2=O)CC1 (stereo not given)	109	111
Cc1ccc(CN(Cc2ccco2)C(=O)COc2ccccc2C)cc1	103	109
O=C(Nc1cccc(NC(=O)c2ccc(Br)cc2)c1)c1ccccc1	104	110
COc1cccc(N2CCN(C(=O)c3nn(C)c4c3CSc3ccc(C)cc3-4)CC2)c1	110	103
COc1ccc(C2c3c(n(C)c4ccccc34)C(=O)N2CC(=O)Nc2ccc(C)c(Cl)c2)cc1 (stereo not given)	101	92
Cc1cc(C)c2oc(-c3ccc(C)c(NC(=O)/C=C/c4ccco4)c3)nc2c1	110	118
CCOC(=O)c1cc(S(=O)(=O)NCc2ccccc2)[nH]n1	109	104

Whole records, looked up by structure. Values in the order: Polio RdRp inh	Polio RdRp inh intensity
CC1CCN(C(=O)c2cccc(NC(=O)c3nsc4ccccc34)c2)CC1 is entered as 113	114
COc1cccc(N2CCN(C(=O)c3nn(C)c4c3CSc3ccc(C)cc3-4)CC2)c1 is entered as 110	103
Cc1ccc(/C=C/c2onc(C)c2S(=O)(=O)N2CCC(C(=O)Nc3cc(F)ccc3F)CC2)cc1 is entered as 100	108
Cc1cc(C)c2oc(-c3ccc(C)c(NC(=O)/C=C/c4ccco4)c3)nc2c1 is entered as 110	118
CCN1CCN(C(c2ccc(Cl)cc2)c2c(O)cc(C)n(CCOC)c2=O)CC1 (stereo not given) is entered as 109	111

Screening results (PubChem)

The list is partial (hit frequency here may not be typical).
